# Source: PubChem (Southern Research Institute)
# Mtb growth – Mycobacterium tuberculosis H37Rv growth inhibition, cell based, confirmatory dose response (AID 1949) | M. tuberculosis H37Rv growth inhibition | most inactive calls were filed without a number and no value below 0 was filed | inhibition, % at 10 µg/mL; hits with a dose series show IC50 in µg/mL | 100,000 compounds, 1.6% hits;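 active means confirmed in a dose series; inconclusive means about 50% or more but not retested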;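 further: bacteria grown 7 days with compound before Alamar blue readout; 0% = untreated bacteria and 100% = reference antibiotic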
# An asterisk follows results filed as active; i = inactive; u = inconclusive. Not all compounds are listed; count on the stated rates, not on these rows.
SMILES,Mtb growth
COC(=O)C1=C(C(=O)OC)SC(=C2C(=S)C(C)(C)Nc3c(OC)cccc32)S1,i
O=C(COc1ccc(Br)cc1)Nc1nc(-c2ccc(S(=O)(=O)N3CCOCC3)cc2)cs1,i
COc1ccc(CC(=O)Nc2ccc(-c3nnc(-c4ccc(C)cc4)o3)cc2)cc1,i
COc1ccc(S(=O)(=O)N(CC(=O)Nc2ccccc2C(=O)NCC(C)C)c2ccc(F)cc2)cc1OC,8%
Cc1cc2n(n1)c1cc(C)nn1c1cc(C)nn21,3%
O=C(c1cccc(C(=O)N2CCN(c3ccccc3)CC2)n1)N1CCN(c2ccccc2)CC1,i
Cc1ccc(C(=O)NCc2cccs2)cc1C,i
COc1ccc(OC(=O)c2ccc(OC)c(Br)c2)cc1,u
CCOc1ccccc1C(=O)Nc1ccccc1C,8%
Cc1nn(-c2ccccc2)c(C)c1NS(=O)(=O)c1ccccc1,i
COc1ccc(N/C(N)=N\c2nc(C)cc(C)n2)cc1OC,i
COC(=O)c1c(NC(=O)C2CCC2)sc(C(=O)N(C)C)c1C,i
O=C(c1ccc(Cl)cc1)N1CCN(c2ccccc2NC(=O)C(Cl)(Cl)Cl)CC1,i
COc1ccc(NS(=O)(=O)c2ccc(NC(=S)NCC3CCCO3)cc2)cc1 (stereo unspecified),i
CC1=C(C(N)=O)C(c2cccc(F)c2)n2nnnc2N1 (stereo unspecified),i
C#CCOc1ccc(Cl)cc1C1C2=C(CC(C)(C)CC2=O)N(CC(=O)O)C2=C1C(=O)CC(C)(C)C2,i
COc1ccc(N(Cc2cc3cccc(C)c3[nH]c2=O)C(C)=O)cc1,i
CCOC(=O)c1c(NC(=O)COc2ccccc2)sc(C(=O)Nc2ccccc2F)c1C,i
O=C(CN1C(=O)C2C3CCC(C3)C2C1=O)Nc1ccc(Br)c(Cl)c1 (stereo unspecified),i
CCCCc1ccc(NC(=O)CSc2c(C)n[nH]c2C)cc1,i
O=C1c2cccc3cccc(c23)C(=O)N1c1ccccc1O,i
O=C(COc1cccc(C(F)(F)F)c1)NCc1cccs1,1%
COc1ccc2c(c1)c(C(=O)O)c(C)n2CCc1ccc(OC)c(OC)c1,i
Cc1cc(C)cc(NC(=S)NC2CCCC2)c1,8.7µg/mL*
COc1ccc(-c2oc3ncn(CCCn4ccnc4)c(=N)c3c2-c2ccc(OC)cc2)cc1,3.8µg/mL*
CCc1nnc(NC(=O)C2CC(=O)N(C3CCCCC3)C2)s1 (stereo unspecified),i
CC(C)CNC(=O)c1ccccc1NC(=O)CCc1ccccc1,3%
CCN(CC)c1ccc(NC(=S)Nc2cccc(Cl)c2Cl)cc1,i
COc1ccc(NC(=O)Nc2ccc(Cl)cc2F)cc1OC,i
N#Cc1ccccc1OCCCCn1cncn1,i
CSc1nc2ccccc2n1CC(=O)Nc1cccc([N+](=O)[O-])c1,i
CCOc1ccc(NC(=O)Cc2ccc(Br)cc2)cc1,i
COc1ccc(N(CC(=O)N2CCCCC2)S(C)(=O)=O)cc1Cl,i
Cc1ccccc1SCCNC(=O)CCc1ccccc1,i
C/C(=N/N=C1\NC(=O)C(Cc2ccc(F)cc2)S1)c1ccc(C)cc1 (stereo unspecified),i
CCC(=O)Nc1cccc(NC(=O)COc2ccc([N+](=O)[O-])cc2)c1,17%
COC(=O)c1cc(OC)c(OC)cc1NC(=O)COc1ccc(Cl)cc1Br,i
Cc1ccc(CN2CCC(C(=O)N(CCc3ccccc3)Cc3ccccc3)CC2)o1,5%
CCOC(=O)C1CCN(C(=O)CN(Cc2ccccc2C)S(=O)(=O)c2ccc(Cl)cc2)CC1,i
COc1ccc(Cl)cc1NC(=O)NNC(=O)c1ccccc1Br,i
CCNC(=O)CC1C(=O)N(c2ccc(C)cc2)C(=O)N1Cc1ccc(F)cc1 (stereo unspecified),3%
O=C(CSc1nnc(Cc2ccccc2)o1)NCCc1ccccc1,u
Cc1ccc(C(C)C)c(OC(=O)CS(=O)c2ccc(S(C)(=O)=O)cc2[N+](=O)[O-])c1 (stereo unspecified),4%
CN=C1NC(=O)CC(C(=O)Nc2cccc(OC)c2)S1 (stereo unspecified),i
CNC(=O)COc1ccc2cc(Br)ccc2c1,i
CC12CCC(C(=O)Nc3c(Cl)cccc3Cl)(CC1=O)C2(C)C (stereo unspecified),i
O=C(N1CCOCC1)N1CCN(c2ccccc2)CC1,i
CC1CCc2c(sc3ncn(Cc4ccc(C(=O)OC(C)C)cc4)c(=O)c23)C1 (stereo unspecified),i
CCCc1nc2ccccc2n1CCOC,i
Cc1ccc(C(C)C)c(OCCNC(=O)c2ccc3ccccc3n2)c1,44%

# Next section, overlapping the part above by three compounds.
SMILES,Mtb growth
CC1CCc2c(sc3ncn(Cc4ccc(C(=O)OC(C)C)cc4)c(=O)c23)C1 (stereo unspecified),i
CCCc1nc2ccccc2n1CCOC,i
Cc1ccc(C(C)C)c(OCCNC(=O)c2ccc3ccccc3n2)c1,44%
CC(=O)Nc1ccc(NC(=O)c2ccc(NC(=O)c3ccc(C)cc3)cc2)cc1,i
N/C(=N\OC(=O)CCc1ccccc1)c1ccc(Cl)cc1,i
O=C(COc1ccccc1)NC(=S)Nc1cc2nn(-c3ccccc3)nc2cc1Cl,i
CCOC(=O)C1CCCN(C(=O)Nc2cccc(Cl)c2)C1 (stereo unspecified),i
O=C1c2cccc3cccc(c23)C(=O)N1CCCNCCO,3%
Cc1cc(C)nc(N(C#N)CCOc2ccccc2)n1,i
Cc1cc(-c2ccccc2)nc(Nc2nc(C)c3ccccc3n2)n1,u
COC(=O)c1c(N)n(-c2cc(C)cc(C)c2)c2nc3ccccc3nc12,2%
O=C(c1ccc(-c2ccccc2)cc1)N1CCC(C(=O)N2CCN(Cc3ccccc3)CC2)CC1,11%
O=C1c2ccccc2C(=O)N1CCn1c(=O)oc2ccccc21,i
CC(C)c1ccc(C(=O)NC(=S)Nc2ccccc2C(N)=O)cc1,i
CC1=C(C(=O)OCC2CCCO2)C(c2ccc(C)s2)C2=C(CC(c3cccs3)CC2=O)N1 (stereo unspecified),i
COc1ccc(S(=O)(=O)N2CCC(C(=O)Nc3ccccc3Br)CC2)cc1,i
CCOCC(=O)N1CCN(c2cccc(Cl)c2)CC1,u
OC(COc1ccc2ccccc2c1)CN1CCN(c2cccc(Cl)c2)CC1 (stereo unspecified),11%
C=CCNC(=O)c1cc(-c2ccccc2)nc2ccccc12,1%
COc1ccc(S(=O)(=O)N(CC(=O)Nc2ccc3c(c2)OCCO3)c2ccccc2)cc1,i
CCC(C)NC(=S)NC12CC3CC(CC(C3)C1)C2 (stereo unspecified),1%
Cc1ccc(OCC(=O)c2ccc(O)cc2O)cc1,3%
CCOC(=O)c1ccc(NC(=O)COc2ccc(C(=O)NCCc3ccccc3)cc2)cc1,i
COC(=O)COc1ccc(NC(=O)c2cccc(C)c2)cc1,0.58µg/mL*
CCOc1ccc(N(CC(=O)Nc2cc(Cl)cc(Cl)c2)S(C)(=O)=O)cc1,6%
COC(=O)CCC/C=C1/SC[C@@H](NC(=O)c2ccccc2)[C@@H]1O,i
CCc1nnc(NC(=O)Cc2ccc(F)cc2)s1,i
O=C(CSc1nnc(NC(=O)CCc2ccccc2)s1)Nc1cc(Cl)cc(Cl)c1,5%
O=C(N=Nc1c(O)[nH]c2ccccc12)c1ccc(Cl)cc1,47µg/mL*
O=C(Nc1cccc(C(=O)N2CCN(c3cccc(Cl)c3)CC2)c1)c1ccccc1,48%
O=C(Nc1cnccn1)c1cccs1,i
COc1ccc(OCCCC(=O)Nc2ccc(N3CCOCC3)cc2)cc1,i
CC1=NN(C(N)=S)C(c2ccccc2)C1 (stereo unspecified),i

# Four of these compounds, set out differently:
> COc1ccc(NS(=O)(=O)c2ccc(NC(=S)NCC3CCCO3)cc2)cc1 (stereo unspecified)
  Mtb growth: i
> N#Cc1ccccc1OCCCCn1cncn1
  Mtb growth: i
> CC12CCC(C(=O)Nc3c(Cl)cccc3Cl)(CC1=O)C2(C)C (stereo unspecified)
  Mtb growth: i
> COc1ccc(N(Cc2cc3cccc(C)c3[nH]c2=O)C(C)=O)cc1
  Mtb growth: i

# Remaining list, next part:
SMILES,Mtb growth
CCOc1ccc(C2CC(=O)NC(SCC(=O)NC3CCCCC3)=C2C#N)cc1 (stereo unspecified),6%
CC(C)c1cc(C(=O)NNC(=S)NC2CCCCC2)c(O)c(C(C)C)c1,i
O=S(=O)(c1cccc(NC(=S)N2CCN(Cc3ccccc3)CC2)c1)C(F)F,1%
COc1ccc(C)cc1-n1c(C)cc(C=O)c1C,1%
Cc1ccccc1NC(=O)CSc1ncnc2scc(-c3ccc(Cl)cc3)c12,i
COC(=O)Cc1c(C)c2ccc(OCC(=O)c3ccc(Cl)s3)cc2oc1=O,2.5µg/mL*
O=C(Nc1ccon1)c1cc(-c2ccc3c(c2)OCO3)nc2ccccc12,1%
CCOc1ccccc1OCCCCN1CCOCC1,i
Cc1ccc(C)n1CCCCNC(=S)Nc1ccccc1,i
O=C(Nc1cc(Cl)ccc1O)c1ccc(Cl)cc1[N+](=O)[O-],2%

# Some of the entries so far, with tabs:
Molecule	Mtb growth
O=S(=O)(c1cccc(NC(=S)N2CCN(Cc3ccccc3)CC2)c1)C(F)F	1%
COc1ccc(C)cc1-n1c(C)cc(C=O)c1C	1%
Cc1ccccc1NC(=O)CSc1ncnc2scc(-c3ccc(Cl)cc3)c12	i
COC(=O)Cc1c(C)c2ccc(OCC(=O)c3ccc(Cl)s3)cc2oc1=O	2.5µg/mL*
O=C(Nc1ccon1)c1cc(-c2ccc3c(c2)OCO3)nc2ccccc12	1%
CCOc1ccccc1OCCCCN1CCOCC1	i
Cc1ccc(C)n1CCCCNC(=S)Nc1ccccc1	i
O=C(Nc1cc(Cl)ccc1O)c1ccc(Cl)cc1[N+](=O)[O-]	2%

# Next part
SMILES,Mtb growth
COc1ccc(S(=O)(=O)N(CC(=O)Nc2ccccc2C(N)=O)c2ccc(C)cc2)cc1,i
CC12CC=CCC1C(=O)N(CCN1C(=O)C3CC=CCC3(C)C1=O)C2=O (stereo unspecified),i
O=C(NCc1ccccc1)c1nc(SCc2ccccc2)ncc1Cl,i
COc1ccc(/C=C/c2nc3ccccc3s2)cc1S(=O)(=O)N1CCOCC1,1%
COc1ccc(CCC(=O)NC(C)C)cc1,i
O=C(CCc1ccccc1)Nc1nnc(SCc2ccc([N+](=O)[O-])cc2)s1,i
CC(C)N(Cc1nc(-c2ccc(Cl)cc2)no1)C(=O)COc1ccccc1,1%
O=C(Nc1ccc2nsnc2c1Br)c1sc2cccc(Cl)c2c1Cl,i
Cc1nn(CCCNC(=O)C2CCCO2)cc1Br (stereo unspecified),i
COCCCNC(=O)C(=O)NC(C)c1ccccc1 (stereo unspecified),2%
Cc1ccc(CNC(=O)CSc2ncccn2)cc1,0%
COc1ccc(OC)c(Nc2ncnc3c2cnn3-c2ccccc2)c1,i
COc1ccc(CCn2c(-c3ccncc3)n[nH]c2=S)cc1OC,i
COc1ccc(-n2c(-c3cc(OC)c(OC)c(OC)c3)n[nH]c2=S)cc1,i
CN(C)CCNC(=O)c1cc2ccccc2oc1=O,i
O=c1oc2cc(OCc3c(F)cccc3F)c(Cl)cc2c2c1CCC2,i
COc1ccccc1NC(=O)c1ccc2c(c1)CCN2S(C)(=O)=O,i
CN(C1=NC(=O)CS1)c1ccc(Cl)cc1,1%
CNC(=S)NN1C(C)CCCC1C (stereo unspecified),i
CC(=O)c1c(C)oc(C)c1CSc1ccccc1C(=O)O,i
COc1ccc(S(=O)(=O)Nc2cc(C)ccc2OC)cc1C,i
CC(C)c1ccc(/C=C2\SC(=S)N(CC(=O)NCCCN3CCOCC3)C2=O)cc1,i
Cc1oc(CC(C)C)c(CN)c1C(=O)O,i
S=C(NCCc1ccccc1)N1CCN(C2CCCCC2)CC1,2%
O=C(c1cccc(C(=O)N2CCN(c3ccccc3F)CC2)c1)N1CCN(c2ccccc2F)CC1,2%
CCc1nc2oc(OCC(=O)NCc3ccc(F)cc3)nc2c(C(F)(F)F)c1C,i
Cc1cccc(/C(N)=N/OC(=O)Cc2cccs2)c1,i
COc1ccc(S(=O)(=O)NCc2ccco2)cc1N(C)S(=O)(=O)c1ccccc1,i
CC1CCc2c(sc(NC(=O)Oc3ccccc3)c2C#N)C1 (stereo unspecified),i
C=CCn1c(SCC(=O)N2CCc3ccccc32)nc2ccccc2c1=O,i
Cc1nc(CN2CCCC2=NC#N)n(-c2ccccc2)n1,i
CC(C)C(=O)N1CCN(c2ccc([N+](=O)[O-])c(NCc3ccccc3)c2)CC1,6%
Cc1ccc(NC(=O)c2cc([N+](=O)[O-])ccc2N2CCCCCC2)cc1,3%
O=C(C1CCN(C(=S)NC2CC2)CC1)N1CCCC1,i
O=C(NCC1CCCO1)c1cccc2ccccc12 (stereo unspecified),i
O=C(NC(c1ccccc1)c1ccccc1)c1cc2ccccc2oc1=O,13%
O=C(Nc1cccc(Cl)c1Cl)C1CC(=O)N(c2ccc(F)cc2)C1 (stereo unspecified),i
O=C(COc1ccc(Br)cc1Cl)N1CCN(Cc2ccc3c(c2)OCO3)CC1,i
CC(=O)c1ccccc1OC(=O)c1ccc(C)c(Br)c1,i
Fc1ccccc1CN1CCN(C2CCC(c3ccccc3)CC2)CC1 (stereo unspecified),21%
CCOc1ccc(C(=O)NCc2ccc(OC(C)C)cc2)cc1OC,i
COC(=O)c1cccc(NS(=O)(=O)c2ccc(OC)c(OC)c2)c1C,i
CCn1c(SCC(=O)Nc2ccc(Cl)c(Br)c2)nnc1-c1ccc(OC)cc1,i
Cc1ccc(S(=O)(=O)N2CCN(C(=S)Nc3cccc4ccccc34)CC2)cc1,i
Cc1ccc(-n2c(CCc3ccccc3)n[nH]c2=S)cc1C,6%
O=S(=O)(Nc1ccccc1F)c1cccs1,6%
N#CCNS(=O)(=O)c1ccc(Cl)cc1,14%
CC(c1ccccc1)C1CC(=O)N(c2ccc(C(=O)O)cc2)C1=O (stereo unspecified),i
CCOc1ccc(S(=O)(=O)NCc2ccccc2OC)cc1,2%
C=CCSc1nc(-c2cccc(OC)c2)c(C#N)c(=O)[nH]1,i
